CBX7 inh = CBX7 inhibition, primary AlphaScreen; O95931; AlphaScreen His6-CBX7 / biotin-H3K27me3 peptide binding; stronger effect = lower value; hit rate 1.1% among 66,000; normalised signal (fraction of DMSO) (test concentration not listed); in the data active = normalised signal below about 0.5;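 also: 100 nL library stock added to about 20 µL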
Target sequence (O95931 whole entry, looked up): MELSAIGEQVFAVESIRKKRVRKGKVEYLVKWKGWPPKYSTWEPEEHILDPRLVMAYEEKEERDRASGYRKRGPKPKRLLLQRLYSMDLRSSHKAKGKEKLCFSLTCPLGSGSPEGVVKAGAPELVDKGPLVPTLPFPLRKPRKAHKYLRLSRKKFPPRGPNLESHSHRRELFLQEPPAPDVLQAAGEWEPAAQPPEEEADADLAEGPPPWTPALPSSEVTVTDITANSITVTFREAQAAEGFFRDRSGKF
CBX7 inh z-score = also measured in CBX7 inh; calls as there; z-score; measured here: z-score of CBX7 signal; some inactives read as strong as hits; reference of the scale not given here;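 same signal on another scale; lower means less binding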
* hit, by the source's call; & = joins results of further samples. Only part of the results is shown. The share of hits here may be higher or lower than overall.

Order of values: CBX7 inh	CBX7 inh z-score
Cc1ccc(NC(=O)N2CCC(N(C)CCC(C)C)CC2)cc1C
  1	0.198
CC1CCc2nc3ccc(S(=O)(=O)N4CCC(C(=O)NC5CC5)CC4)cc3c(C(=O)O)c2C1 (stereo not drawn)
  1.06	2.04
Cc1ccc(NC(=O)c2cccc3c2C(=O)N(Cc2cccnc2)C3)cc1
  0.924	-0.632
Cc1ccc2nc(NS(=O)(=O)c3ccc(Cl)cc3)c(Nc3ccc4[nH]c(=O)[nH]c4c3)nc2c1
  1.08	1.9
CCOc1ccc(-c2csc(NC(=O)COc3c(C)ccc(C)c3C)n2)cc1
  1.13	1.13
CNC(=O)COc1ccc(Nc2nnc(-c3ccc(OC)cc3)c3ccccc23)cc1
  1.01	0.0202
COc1cc(OC)c(NC(=O)CS(=O)(=O)Cc2nc(-c3ccc(C)cc3)oc2C)cc1Cl
  0.941	-0.147
NS(=O)(=O)c1ccc(Nc2nc(-c3cccnc3)cs2)cc1
  1.09	1.78
CN(c1ccccc1)S(=O)(=O)c1ccc(C(=O)Nc2nnc(-c3cccs3)o2)cc1
  0.983	-0.383
CCOC(=O)C(C)NC(=O)Cn1nc(Cc2ccncc2)c2ccccc2c1=O (stereo not drawn)
  1.18	1.86
COc1ccc(-c2nc(-c3ccccc3)c(-c3cccs3)[nH]2)cc1O
  0.877	-3.06
NC(=O)c1ccc(-n2nnnc2SCc2ccccc2)cc1
  1.12	1.18
CCOC(=O)c1cccc(NC(=O)Cn2ncc3c2-c2cc(C)ccc2OC3)c1
  1.06	1.68
O=C(CCn1c(=O)[nH]c2ccsc2c1=O)NCc1ccc2c(c1)OCO2
  1.2	0.943
CCOC(=O)N1CCC(Nc2c(NCCCN3CCCC(C)C3)c(=O)c2=O)CC1 (stereo not drawn)
  1.05	1.84
COc1ccccc1NC(=O)c1c(NCc2cccs2)sc2c1CCCC2
  0.467*	-7.46*
Cc1cc2cc(CCNC(=O)c3ccc(F)cc3)c(=O)[nH]c2cc1C
  1.01	0.491
CCCCOc1ccc(C(=O)Nc2nc3c(s2)CCc2cc(OC)ccc2-3)cc1
  1.05	0.669
CCc1ccc(NC(=O)C2CCN(C(=O)c3cc4sccc4n3Cc3ccc(F)cc3)CC2)cc1
  0.965	-1.42
Cc1ccccc1OCCCC(=O)Nc1nc(-c2ccc(Br)cc2)cs1
  1.14	0.597
CC(=O)Oc1ccc(/C=C/c2ccc3cccc(OCc4ccccc4Cl)c3n2)cc1
  1.14	1.6
Fc1ccc(Nc2c3c(nc4ccccc24)CCC3)cc1Cl
  0.872	-2.49
C=CCn1c(SCC(=O)Nc2ccc(F)cc2)nnc1-c1cccnc1
  0.998	-0.047
Cc1ccc(-n2nc(C)c3c(C)c(CCC(=O)N4CCN(c5ccccc5)CC4)c(C)nc32)cc1
  1.01	0.101
O=C(NCc1cccs1)c1csc2c1CCCCC2
  1.09	2.27
Cc1ccccc1-n1nc2c(c1NC(=O)COc1ccccc1)CSC2
  0.98	-0.485
COc1ccc(S(=O)(=O)Nc2ccc(Cl)c(Cl)c2)c2cccnc12
  1.07	0.954
O=C1CC(c2ccc(Cl)cc2)CC2=C1C(c1cccc(F)c1)Nc1ccccc1N2 (stereo not drawn)
  0.944	-0.882
CCCC(=O)NCCc1nc2ccccc2n1CCC
  1.11	1.53
Cc1ccccc1C(=O)Nc1sc2c(c1C(=O)N1CCN(C)CC1)CCCC2
  1.19	2.03
Cc1ccc(CCNC(=O)c2cc3c(C)nccc3[nH]c2=O)cc1
  0.922	-1.46
Fc1ccc(-c2[nH]c(-c3c[nH]c4ccccc34)nc2-c2ccccc2)cc1
  0.416*	-0.581*
CCC(=O)N1CCc2cc(S(=O)(=O)Nc3ccccc3CC)ccc21
  0.795	-0.828
CCn1c2ccccc2c2cc(NC(=O)c3ccc(F)cc3)ccc21
  0.974	-0.259
CC(O)Cc1nsc(NC(=O)c2cccc(Cl)c2)n1 (stereo not drawn)
  0.939	-0.0804
NC(=O)CSc1oc(-c2cccs2)nc1S(=O)(=O)c1ccccc1
  0.941	-0.487
CC(C)(C)c1ccccc1OCC(=O)Nc1cccc(Cl)c1
  1.03	0.0671
O=C(Cn1ccc2ccccc2c1=O)Nc1nc2ccccc2s1
  1.14	1.27
O=C(Nc1ccc(F)cc1)c1cccc2c1C(=O)N(Cc1ccccn1)C2
  0.945	-0.461
COc1cccc(C2C(=O)N(C3CCCCC3)CC(=O)N2Cc2ccc(C)cc2)c1 (stereo not drawn)
  1.3	1.21
Cc1nn(CC(=O)NC2CCCc3ccccc32)c2ccccc12 (stereo not drawn)
  0.987	-0.596
CCCCOc1ccc(C(=O)Nc2nc3ccc(OCC)cc3s2)cc1
  1	0.0533
Cc1cc(C(=O)Nc2c(C)nn(Cc3ccccc3Cl)c2C)no1
  1.01	0.224
CC1(C)CC(=O)c2cnc(NCCc3ccccc3)nc2C1
  1.02	0.781
COc1cc(NS(=O)(=O)c2ccc3c(c2)n(C)c(=O)c(=O)n3C)cc(OC)c1
  1.2	1.43
CC1CCCCN1CC(O)COc1c(F)cc(Br)cc1F (stereo not drawn)
  1.33	2.52
COc1ccc(N(CC(=O)Nc2ccc(C)cc2)S(=O)(=O)c2ccc(C)cc2)cc1
  1.09	0.823
CC(=O)N1CCc2cc(Br)cc(S(=O)(=O)N3CCN(c4cccc(C)c4)C(C)C3)c21 (stereo not drawn)
  0.831	-3.66
CCOc1ccc(C(=O)Nc2cccc(-c3nc4ncccc4o3)c2)cc1Cl
  1.07	1.19
Cc1ccc(CN(Cc2cccnc2)C(=O)Nc2ccc(Cl)cc2)cc1
  0.828	-0.171
Cc1cc(C)cc(N(CC(=O)Nc2ccccc2C)S(=O)(=O)c2c(C)noc2C)c1
  0.93	-0.586
O=C(COc1ccccc1Cl)Nc1nc2ccccc2s1
  0.994	-0.0692
Cc1ccc(-c2noc(CN3CCC(C)CC3)n2)cc1
  1.05	1.43
O=C(O)c1ccccc1C(=O)NCCc1c(C(=O)O)[nH]c2ccc(Cl)cc12
  0.954	-0.883
Cc1ccc2nc(NC(=O)C3CCCN3S(=O)(=O)c3cccc4cccnc34)sc2c1 (stereo not drawn)
  0.916	-2.83
O=C(c1cc(-c2ccccc2O)on1)N1CCc2ccccc2C1
  1.04	0.048
Cc1onc(-c2ccccc2Cl)c1C(=O)Nc1cc(F)c(F)c(F)c1
  1.08	2.11
Cc1ccc(NC(=O)c2cc(-c3ccc4c(c3)OCO4)on2)cc1
  1.21	1.66
CCOC(=O)c1c(NC(=O)CCc2ccccc2)sc2c1CCC(CC)C2 (stereo not drawn)
  1.09	0.656
CCN1C(=O)C(O)(CC(=O)c2ccc(C)cc2)c2cc(Br)ccc21 (stereo not drawn)
  0.985	-0.147

2 consecutive compounds already listed, for reference:
Order of values: CBX7 inh	CBX7 inh z-score
COc1cc(NS(=O)(=O)c2ccc3c(c2)n(C)c(=O)c(=O)n3C)cc(OC)c1
  1.2	1.43
CC1CCCCN1CC(O)COc1c(F)cc(Br)cc1F (stereo not drawn)
  1.33	2.52

Following part
Order of values: CBX7 inh	CBX7 inh z-score
COc1ccc(CSc2nc3ccccc3nc2SCc2ccc(OC)cc2)cc1
  1.39	5.34
COCCCNc1ncnc2c1c(-c1ccccc1)cn2-c1cccc(C(F)(F)F)c1
  0.998	-0.0544
Cc1onc(-c2ccccc2Cl)c1C(=O)Nc1ccc(N2C(=O)c3ccccc3C2=O)cc1
  0.92	-2.02
CC(=O)Nc1nonc1-c1nc2ccccc2n1Cc1cccc(C(F)(F)F)c1
  1.01&1.02	0.423&1.02
COc1ccc(-c2c(-c3ccc(O)cc3O)n[nH]c2C(F)(F)F)cc1
  0.852	-2.3
Cc1ccc(C(=O)c2oc3ccccc3c2NC(=O)COc2cc(C)cc(C)c2)cc1
  1.18	0.635
O=C(c1ccc2c(c1)N(Cc1ccccc1)C(=O)CS2=O)N1CCc2ccccc2C1 (stereo not drawn)
  1	0.000854
Cc1ccc(NC(=O)c2c(O)c3ccccc3[nH]c2=O)c(C)c1
  1.14	1.51
COc1nnc(-c2ccc(C)c(S(=O)(=O)NCc3ccccc3)c2)c2ccccc12
  0.897	-2.31
COc1ccc(C(=O)Nc2ccc3c(c2)C(=O)N(C)C3=O)cc1OC
  1.23	1.92
COc1ccccc1C(=O)Nc1cccc(-c2nc3ccccc3o2)c1C
  1.03	1.34
COc1ccc(NC(=O)N2CCN(C/C=C/c3ccccc3)CC2)cc1
  1.07	0.666
COc1cc(C(=O)Nc2ccc3nc(N4CCN(C)CC4)cc(C)c3c2)ccc1Br
  1.01	0.354
COc1ccc(C2(CNC(=O)C(c3ccccc3)c3ccccc3)CCCC2)cc1
  1.1	5.16
Cc1nc2cc(-c3ccc(Cl)cc3)nn2c(C)c1CCC(=O)N1CCN(c2ccccn2)CC1
  0.977	-0.459
O=C(NCCCN1CCCC1)C1CCN(c2nnc(-n3cccc3)s2)CC1
  1.67	7.06
CCOC(=O)c1oc2ccccc2c1NC(=O)c1ccc(OC)cc1
  1.15	5.48
CC1(C)CC(=O)N(CC(=O)NCc2cccnc2)c2ccccc2S1(=O)=O
  0.981	-0.553
O=C(O)c1[nH]c2ccc(Cl)cc2c1CC(=O)N1CCN(c2cccc(Cl)c2)CC1
  1.16	1.49
CC(=O)Nc1ccccc1-c1nc2ccc(C(=O)N3CCN(c4cc(C)ccc4C)CC3)cc2[nH]c1=O
  0.95	-0.964
CCOc1cccc(N2C(=O)CC(N3CCC(C(N)=O)(N4CCCCC4)CC3)C2=O)c1 (stereo not drawn)
  1.03	1.11
Clc1ccc(-c2noc(COc3cccc4ccccc34)n2)cc1
  1.67	0.788
COc1ccc(NC(=O)c2cc3c(n(-c4ccc(C)cc4)c2=O)CCCC3=O)cc1
  0.988	-0.0415
Cc1ccc(-c2nnc(N3CCOCC3)c3ccccc23)cc1S(=O)(=O)N(C)C
  0.967	-0.846
CCC(C(=O)N1CCN(c2ccccc2F)CC1)n1ncc2ccccc21 (stereo not drawn)
  0.828	-3.88
COc1ccc(-c2nc(-c3ccccc3F)[nH]c2-c2ccc(OC)cc2)cc1
  0.466*	-0.531*
O=C(CN1C(=O)CSc2ccc(S(=O)(=O)N3CCOCC3)cc21)NCc1cccs1
  0.894	-1.22
CC1CCN(S(=O)(=O)c2ccc3ncn(CC(=O)NCCN(C)C)c(=O)c3c2)CC1
  0.875	-1.12
Cc1cc(N2CCN(C)CC2)nc2ccc(NC(=O)CCC(=O)NCc3cccnc3)cc12
  1.01	0.621
CC(NC(=O)c1ccncc1)C(c1cccs1)N1CCN(c2ccccc2)CC1 (stereo not drawn)
  0.749	-2.66
CCc1cccc(C)c1NC(=O)C1(S(=O)(=O)c2ccc(C)cc2)CC1
  0.99	-0.173
COc1ccc(Nc2cc(C(=O)NCCCN3CCN(C)CC3)c3ccccc3n2)cc1OC
  0.949	-0.602
O=C(Nc1ccccc1C(=O)N1CCCCCC1)c1cccc(S(=O)(=O)N2CCCCC2)c1
  1.07	0.768
Cc1nnc2ccc(N3CCc4ccccc4C3)nn12
  0.965	-0.96
CCCNC(=O)C1CCN(Cc2nc(-c3ccc(Cl)cc3)oc2C)CC1
  1.06	2.16
Cc1cc(N2CCN(c3cc(Cl)ccc3C)CC2)n2nc(C)nc2n1
  1.05	1.62
CCCN(C(=O)Cc1c(C(=O)O)[nH]c2ccc(Cl)cc12)c1ccccc1C
  1.21	1.98
Cc1ccccc1NC(=O)c1nc[nH]c1C(=O)NCc1ccccc1
  0.944	-1.48
O=C(CCN1N=C(c2ccccc2)CCC1=O)NCc1ccc2c(c1)OCO2
  1.08	1.08
COCCCNC(=O)c1nc(-c2ccc(OC)cc2)oc1C
  1.03	1.03
COc1ccc(CCN2C(=O)N(c3ccc(F)cc3)C(=O)C2CC(=O)Nc2ccc(F)c(F)c2)cc1 (stereo not drawn)
  1.06	2.49
Cc1cc(C)cc(Nc2nc(-c3cccc(C)c3)nc3ccccc23)c1
  1.56	11.8
Cc1ccc(-n2c(CCC(=O)O)ccc2-c2ccc(Cl)cc2)cc1
  1.08	2.38
COc1ccc(OCc2nc(-c3ccc(OC)c(OC)c3)no2)cc1
  1.03	0.598
Clc1ccccc1-c1noc(-c2ccc(-c3ccccc3)cc2)n1
  1.05	2.14
CCOc1ccc(-n2nc(C(=O)NCCCOC)c3ccccc3c2=O)cc1
  0.954	-0.544
COc1ccc(-c2nc3cc(C)ccn3c2NC(=O)c2ccc(C)c(C)c2)cc1
  0.877	-0.214
Cc1ccc(-c2nc(CSCC(=O)NCC3CCCO3)c(C)o2)cc1 (stereo not drawn)
  0.968	-0.594

Looked up one by one from the list above, four records:
Order of values: CBX7 inh	CBX7 inh z-score
CC1CCCCN1CC(O)COc1c(F)cc(Br)cc1F (stereo not drawn)
  1.33	2.52
CCOC(=O)c1cccc(NC(=O)Cn2ncc3c2-c2cc(C)ccc2OC3)c1
  1.06	1.68
CCOC(=O)c1c(NC(=O)CCc2ccccc2)sc2c1CCC(CC)C2 (stereo not drawn)
  1.09	0.656
NC(=O)CSc1oc(-c2cccs2)nc1S(=O)(=O)c1ccccc1
  0.941	-0.487

Screening data from PubChem.
